# CSC inhib – blocks cancer stem cells. cancer stem cell-like cells viability, luminescence. inhibition, % at 7.5 µM. 1.1% of 300,000 active. AID 2717;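 active means mean at 75% or more and at least half the replicates too; inconclusive means mean and replicates disagree; tested in HMLE shEcad cells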;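 further: 0% = median of negative and 100% = median of positive control wells; the first replicate is given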
# Rce1 inhib – inhibitors of yeast Ras-converting enzyme; Q03530; yeast membranes, quenched prenylated peptide cleavage fluorescence; calls only; 0.27% of 290,000 active; AID 2563;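 active means fall in fluorescence gain of 50% or more versus controls, with final raw signal at or below 3038400; inconclusive means same 50% fall but final raw signal above 3038400; inactive means fall in fluorescence gain under 50%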;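 further: plate controls were neutral control wells for no effect and wells lacking membranes for full effect; tested at 10 µM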
# PABP FP inh – PABP-poly(A) binding inhibition | P11940 | PABP-poly(A) RNA binding, fluorescence polarization | inhibition, % at 35 µM | 1% of 290,000 active;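 active means 50% or more with normal probe brightness, or confirmed in later tests; inconclusive means above 50% with abnormal brightness, or retests that disagree; inactive means below 50% or failed in later tests; about a fifth of its hits are not listed in these tables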;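 further: calls also rest on retests at 20 µM and on dose response follow-up; controls were probe without protein and protein plus probe with vehicle; some compounds called inactive have numbers as strong as hits; many hits fall short of the cut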
# Target sequence (P11940 whole entry, looked up): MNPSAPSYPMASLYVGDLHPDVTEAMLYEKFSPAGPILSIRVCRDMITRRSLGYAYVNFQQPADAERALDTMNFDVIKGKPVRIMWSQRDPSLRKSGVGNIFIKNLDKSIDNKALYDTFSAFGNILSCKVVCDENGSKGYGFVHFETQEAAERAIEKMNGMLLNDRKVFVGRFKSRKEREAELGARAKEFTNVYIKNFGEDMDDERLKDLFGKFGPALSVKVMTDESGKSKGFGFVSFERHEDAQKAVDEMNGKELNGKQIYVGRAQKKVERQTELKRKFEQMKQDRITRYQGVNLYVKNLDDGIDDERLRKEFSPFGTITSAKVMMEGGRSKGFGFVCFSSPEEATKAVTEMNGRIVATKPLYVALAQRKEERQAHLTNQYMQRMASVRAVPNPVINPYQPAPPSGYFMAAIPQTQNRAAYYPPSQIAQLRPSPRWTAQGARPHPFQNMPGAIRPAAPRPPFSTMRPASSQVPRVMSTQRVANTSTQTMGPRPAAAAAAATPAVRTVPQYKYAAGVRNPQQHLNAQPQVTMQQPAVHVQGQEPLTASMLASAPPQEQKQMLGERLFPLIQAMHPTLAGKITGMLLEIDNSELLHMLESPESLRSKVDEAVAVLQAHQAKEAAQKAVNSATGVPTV
# UUG fidelity – modulators of start codon recognition fidelity in yeast. S. cerevisiae UUG-firefly luciferase reporter, luminescence/redox ratio. 0.13% of 350,000 active. activity score, % at 18.7 µM;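 active means replicate mean at a twofold rise or more, about +100% in these data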;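 further: firefly luciferase made from a UUG start codon reports start codon fidelity; reporter light over untreated wells divided by growth signal over untreated wells; some hits fall short of that in this replicate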
# MT1-MMP act inh – MT1-MMP (human) activation inhibition. P50281. HT1080 RFP-PRO-GFP cells, GFP/RFP ratio fluorescence, overnight; percent of plate control window, DMSO zero. GFP/RFP ratio change, % at 20 µM. 0.061% of 360,000 active. AID 651647;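 active means GFP/RFP ratio change of at least 30% with cell ATP level not reduced by more than half and red fluorescence within 50% of control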; further: strong numbers were not always called active
#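 Assay system: HT1080 RFP-PRO-GFP cells | Dosing: 20 µM single dose, 1% DMSO | Incubation: Cells overnight before dosing, compound overnight, 37 °C, 5% CO2 | Evaluation: GFP/RFP fluorescence ratio | Control set: DMSO-only wells and HT1080 RFP-L50D-GFP cell wells as references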
# eIF4H FP inh – inhibitors of RNA binding by human eIF4H. Q15056. eIF4H fluorescence polarization binding assay. inhibition, % at 35 µM. 0.94% of 290,000 active;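 active means 50% or more with normal probe brightness, or confirmed in later tests; inconclusive means above 50% with abnormal brightness, or retests that disagree; inactive means below 50% or failed in later tests; about a fifth of its hits are not listed in these tables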;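 further: calls also rest on retests at 20 µM and on dose response follow-up; 0% = protein and probe with vehicle and 100% = probe without protein; strong numbers were not always called active; many hits fall short of the cut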
# HIV Env fusion – blocks HIV Env-driven cell-cell fusion; HeLa-JRFL Env/CEM21 cell fusion, luciferase; inhibition, % at 12.3 µM; 1.1% of 360,000 active; AID 651610;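 active means mean replicate inhibition score of at least 50 and every replicate individually at or above 50; inconclusive means only one of the two criteria met; inactive means mean below 50 and not all replicates reaching 50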;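 further: 0% = plate neutral controls and 100% = maraviroc near 300 nM; one replicate is shown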
# eIF4H FP inh retest – recorded beside eIF4H FP inh, whose call it bears; inhibition, %; compound at 20 µM; confirmation average;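 mean of two retest wells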
# PABP FP inh retest – further read-out of PABP FP inh, marked with its call; inhibition, %; compound at 20 µM; confirmation repeats;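 mean of two retest wells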
# MT1-MMP act inh RFP – further read-out of MT1-MMP act inh, marked with its call; RFP signal change, %; measured here: RFP expression control read;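 0 = vehicle wells; hits needed this value within 50% of zero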
# Active calls of the source: *; i = inactive; u = inconclusive; x = not tested or not shown; & = joins results of further samples.
SMILES,CSC inhib,Rce1 inhib,PABP FP inh,UUG fidelity,MT1-MMP act inh,MT1-MMP act inh RFP,eIF4H FP inh,HIV Env fusion,others
Cn1c(SCc2ccc(C#N)cc2)nnc1-c1ccccc1,-11,i,3,-5,0,5,-3,x,
Cc1cc(C)n(CC(=O)c2ccc(Br)cc2)c(=O)c1C#N,x,i,-7,8,-1,0,-6,25,
CC1=C(C(=O)N(C(C)C)C(C)C)CC(CC(=O)NCCN2CCOCC2)C(=O)N1Cc1ccccc1 (centres undefined),x,x,x,-4,0,4,x,-5,
O=C(OCCc1cc2ccccc2c(=O)o1)c1ccco1,-8,x,x,-15,-4,1,x,-18,
O=C(COc1coc(CN2CCc3ccccc3C2)cc1=O)Nc1ccc(F)cc1F,-8,i,x,3,0,-3,x,-2,
COc1ccccc1N1CCN(C(=O)/C=C/c2c(Cl)nc3ccccn23)CC1,13,i,22,x,7,-9,1,-12,
O=C(c1cccn2c(=O)c3cc(Cl)ccc3nc12)N1CCN(Cc2ccc3c(c2)OCO3)CC1,16,i,11,-5,-2,-4,-5,-1,
COCCCN1C(=O)c2ccc(C(=O)NCc3ccccn3)cc2C1=O,-7,i,x,-13,-2,4,x,-1,
COc1ccccc1N1CCN(C(=O)CCn2c(=O)[nH]c3ccsc3c2=O)CC1,-16,i,-2,-12,1,5,4,-51,
O=C(CC1SC(=O)N(Cc2ccccc2Cl)C1=O)Nc1nccs1 (centres undefined),-15,i,5,-1,6,-2,-10,13,
Cc1ccc(CN2C(=O)CCC2C(=O)NCC2CCCO2)cc1 (centres undefined),-10,i,-12,8,9,5,-3,x,
COc1ccc(C(=O)C2CCCN(Cc3cc(C)c(O)c(C)c3)C2)c(OC)c1 (centres undefined),u,i,9,3,-1,1,1,-90,
O=C1CC(NS(=O)(=O)c2cccnc2)CN1c1ccc(Cl)cc1 (centres undefined),x,i,x,-16,1,7,x,-3,
CCc1ccc(OCC(=O)NNC(=O)c2c(CC)noc2C)cc1,-6,i,x,x,5,7,x,4,
CN(Cc1ccc(Cl)cc1Cl)C(=O)CN1C(=O)NC2(CCCC2)C1=O,-2,i,x,-11,3,-2,x,x,
C/C(N)=C(/C#N)C(=O)CSc1nnc(Cc2ccccc2F)n1N,-16,i,7,8&-23,-1&-5,3&3,12,-6,
CC1CCN(C(=O)CSc2nnc(-c3ccncc3)n2C)CC1,-4,i,-2,-14,4,4,-1,-52,
CCOC(=O)c1cc(COc2cc(Cl)cc(Cl)c2)on1,-11,i,0,x,x,x,7,x,
COc1ccc(-c2[nH]ncc2/C=N/NC(=O)c2cccc([N+](=O)[O-])c2)cc1OC,9,i,4,x,2,3,-4,2,
COC(=O)C1CCN(C(=O)CN(C)Cc2ccc(C(C)(C)C)cc2)CC1,0,i,11,7,2,0,-7,13,
COc1ccc(N2C(=O)C(Cl)=C(N3CCOCC3)C2=O)cc1,2,i,3,-19,1,0,0,1,
CCOC(OCC)P(=O)(C(C)C)C(C)C,23,i,8,-10,-1,1,1,x,
CC(C)N(C(=O)CN1CCC(c2nc3ccccc3[nH]2)CC1)C(C)C,-12,i,59,-14,-5,0,3,5,eIF4H FP inh retest=-5;PABP FP inh retest=12
CC(C)CNS(=O)(=O)c1ccc(OCC(=O)Nc2ccc(F)cc2F)cc1,-2,i,6,-26,1,1,-9,x,
CC(=O)Nc1ccc(S(=O)(=O)NCc2csc(C)n2)cc1,-9,i,-10,-5,4,0,-1,-22,

# Quoted at random: 2 records from the list.
SMILES,CSC inhib,Rce1 inhib,PABP FP inh,UUG fidelity,MT1-MMP act inh,MT1-MMP act inh RFP,eIF4H FP inh,HIV Env fusion,others
O=C(c1cccn2c(=O)c3cc(Cl)ccc3nc12)N1CCN(Cc2ccc3c(c2)OCO3)CC1,16,i,11,-5,-2,-4,-5,-1,
Cc1cc(C)n(CC(=O)c2ccc(Br)cc2)c(=O)c1C#N,x,i,-7,8,-1,0,-6,25,

# Next part:
SMILES,CSC inhib,Rce1 inhib,PABP FP inh,UUG fidelity,MT1-MMP act inh,MT1-MMP act inh RFP,eIF4H FP inh,HIV Env fusion,others
CCCC(=O)Nc1ccc2c(c1)nc1n2CCN(CCOC)C1,0,i,18,-9,-5,2,4,-3,
Cc1ccc(CCNC(=O)C23CN(Cc4ccccc4)CC2C(c2ccc([N+](=O)[O-])cc2)=NO3)cc1 (centres undefined),10,i,6,-10,3,-1,10,20,
CCC(Sc1nc2ccsc2c(=O)n1-c1ccc(Cl)c(C)c1)C(=O)NCc1ccco1 (centres undefined),1,i,4,-9,-3,-4,-9,65*,
O=C(CCN1C(=O)c2ccccc2C1=O)C1=NN[C@@H]2C(=O)N(c3cccc(F)c3)C(=O)[C@H]12,0,i,-2,x,3,3,-7,-13,
COc1cccc(CNC(=O)C(C)n2nc(C)n3c(cc4occc43)c2=O)c1 (centres undefined),-9,i,8,-16,3,5,-5,17,
O=C(O)c1ccc(Nc2c3ccccc3nc3ccccc23)cc1,1,i,6,-27,4,-15,-5,0,
CCN(CC)CCCn1c(C)cc2c(c1=O)C(c1ccc(OC)c(OC)c1OC)C(C#N)=C(N)O2 (centres undefined),-7,i,10,x,1,2,5,x,
O=C(N/N=C/c1ccccc1)c1ccc(N2CCCC2=O)cc1,-7,i,x,-17,1,5,x,-6,
CC1=C(C(=O)Nc2cc(C(=O)NCCCOC(C)C)ccc2C)SCCO1,-9,i,-5,-16,-3,3,-1,-2,
Cc1ccc(S(=O)(=O)CC(=O)c2ccc3c(c2)OCCO3)cc1,-3,i,1,x,0,1,2,-12,
CSc1ccccc1NC(=O)CN1CCN(c2ccccn2)CC1,-7,i,6,2,0,-4,1,9,
CCOC(=O)CC(=O)CSc1ccc2nnc(-c3ccc(F)cc3)n2n1,-12,i,3,-9,0,-5,36,24,
CCOc1ccc(OCC(=O)OCC(=O)NCC2CCCO2)cc1 (centres undefined),x,x,x,-16,2,1,x,1,
COc1cccc(NC(=O)CSc2nnc(-c3ccc(C)cc3)o2)c1,13,i,5,-11,2,2,3,-99,
Cc1cccc(N2CCN(C(=O)Cn3cccc3C(=O)c3ccccc3)CC2)c1C,9,i,8,x,-1,-7,3,-3,
CCc1ccc(C(=O)N/N=C(\C)c2cccnc2)s1,-3,i,10,7,-8,1,1,-12,
O=C(Nc1ccccc1)c1ccc(-c2ccccc2Cl)o1,15,i,11,-12,9,0,-5,-163,
Cc1cc[n+](-c2nc3ccccc3nc2C(=C=[N-])C#N)cc1,-13,i,57*,-15,-6,14,70*,-19,eIF4H FP inh retest=54*;PABP FP inh retest=95*
COc1cc(SC)ccc1C(=O)OC(C)C(=O)Nc1ccc(NC(C)=O)cc1 (centres undefined),-10,i,8,0,3,3,-6,6,
CN(C)CCCNCC(=O)c1c(-c2ccccc2)n(C)c2ccccc12,-2,i,72,-13,-4,-1,9,8,eIF4H FP inh retest=2;PABP FP inh retest=15
O=C1CCN(CCc2ccccc2)CCN1[C@H](CSc1ccccc1)Cc1ccccc1,13,i,3,-20,-7,-13,-8,-27,
C/C(=N/Nc1nc(C)c(C)s1)c1cccc([N+](=O)[O-])c1,-2,i,4,-16,4,-8,5,-213,
Cc1nc2ccc(NC(=O)c3ccc(F)c(S(=O)(=O)N4CCOCC4)c3)cc2s1,3,i,-3,-15,1,-21,1,x,
O=S(=O)(c1cccc(-c2n[nH]c(=S)o2)c1)N1CCOCC1,0,i,17,-15,4,5,-4,-9,
CC1CCCCC1NC(=O)CCCCCn1c(=S)[nH]c2ccsc2c1=O (centres undefined),4,i,-1,-21,-1,-5,-8,10,

# The list goes on.
SMILES,CSC inhib,Rce1 inhib,PABP FP inh,UUG fidelity,MT1-MMP act inh,MT1-MMP act inh RFP,eIF4H FP inh,HIV Env fusion,others
CN(C)CCNC(=O)CNC(=S)N(Cc1ccccc1)Cc1cccnc1,-6,i,-10,10,1,1,-9,x,
CCOC(=O)C1(Cc2ccc(OC)cc2)CCN(C(=O)CN2CCOC2=O)CC1,-10,i,-4,-5,-1,3,-11,-11,
CCC1CCCCN1C(=O)CSc1nnc(-c2cccc(Cl)c2)o1 (centres undefined),22,i,-8,24,-1,-1,1,-46,
O=C1Nc2ccccc2/C1=N\N=C\c1ccc(O)c(O)c1,26,i,8,3,-2,-4,18,28,
CCOc1ccc(NC(=O)C2CCCN2S(=O)(=O)c2ccc(OCC)cc2)cc1 (centres undefined),11,i,-11,15,0,-3,-13,6,
CCCC(=O)Nc1ccc(-c2csc(-c3cccnc3)n2)cc1,-1,i,-7,-7,4,3,-13,-9,
CN(C)c1ccc(NC(=O)Nc2ccc3c(c2)c(=O)n(C)n3Cc2ccc(Cl)cc2)cc1,x,x,x,-4,-4,-3,x,8,
Cn1c(=O)c2c(nc(N3CCN(Cc4ccccc4)CC3)n2CCCc2ccccc2)n(C)c1=O,x,i,-7,-3,-6,-9,0,x,
CCCCN(C)C(=O)CCC(=O)Nc1ccc2nc(N3CCOCC3)cc(C)c2c1,-29,i,6,-10,6,2,9,-29,
CC(C)[C@H](NC(=O)NCc1cccs1)C(=O)O,-20,i,-6,-18,1,3,-5,x,
O=C(COc1ccccc1O)c1cccs1,x,i,3,-9,2,1,8,x,
CCn1cc(C(=O)OCC(=O)Nc2cccc(C)c2)c(=O)c2ccc(C)nc21,1,i,-5,-1,2,5,-14,14,
COc1ccc(CCC(=O)N2CCN(c3ccc(OC)cc3)CC2)cc1,x,i,4,11,2,3,4,9,
COc1ccc(NC(=O)CCNC(=O)N2CC(=O)Nc3ccccc32)cc1OC,x,x,x,-4,2,4,x,-23,
CC1=C(C(=O)N(C)C)CC(CC(=O)NCC2CCCCC2)C(=O)N1Cc1ccc(F)cc1 (centres undefined),x,x,x,28,-3,3,x,11,
Cc1ccccc1NC(=O)c1ccc2nccnc2c1,-16,i,2,-14,-3,-1,-2,-5,
CCOC(=O)CSc1nc(C)nc2c1sc1nc(C)c(C(C)=O)c(-c3ccc(OC)cc3)c12,6,i,-6,x,-9,-9,-2,x,
COC(=O)CSc1c(-c2ccccc2)c2cc(Cl)ccc2[nH]c1=O,-13,i,-8,-1,0,2,-13,-68,
COCCCNc1nc2c(c(=O)[nH]c(=O)n2C)n1CCCc1ccccc1,-23,i,2,-8,1,2,-1,-25,
O=C(O)c1ccccc1-c1ccccc1C(=O)Nc1cccc(-c2nc3ccccc3o2)c1,-17,i,16,-2,8,-1,1,13,
CN(CCC1CCCCO1)C(=O)CCc1nnc(CCc2ccccc2)o1 (centres undefined),0,i,0,-10,4,8,-4,x,
N#CC(C#N)=NNc1ccc([N+](=O)[O-])cc1,61,i,-12,x,33*,-1.6*,-17,1,
CCc1ccc(OCCCCCn2ccnc2)cc1,25,i,6,-5,5,-17,2,32,
O=C(CSC1c2ccccc2C(=O)N1c1ccccc1)N1CCOCC1 (centres undefined),3,i,-1,-1,2,3,-3,x,
Cc1ccccc1OCc1nnc(SCC(=O)Nc2ccc3nc(SCC(=O)Nc4ccccc4)sc3c2)n1C,10,i,-2,x,-2,-7,2,-19,
COc1ccc(N2C(=O)C(F)(F)C2c2cccc(F)c2)cc1 (centres undefined),-1,i,-2,x,2,-2,-8,-1,
Cc1cc(C(=O)N/N=C/c2ccc(-c3cccc([N+](=O)[O-])c3)o2)n[nH]1,-1,i,9,-16,-3,-2,-20,-10,
COc1ccc2oc3cc(C)[n+]([O-])c(-c4ccc(C)cc4)c3c2c1,3,i,5,-14,1,-20,-8,28,

# Compound activity as filed in PubChem.

# Not all compounds are listed; the hit share may differ from the screen's.
